Screening results as filed in PubChem BioAssay.
MARV entry inh – Marburg virus entry inhibition; Marburg virus pseudotyped entry inhibition, cell reporter; control for the full effect not named in the record; about a third of the inactives were read at about 46 µM; Potency, µM (top dose mostly 37.8 µM), for the others: at the top dose activity change, negative = inhibition, hits mostly inhibitors; 300,000 tested, 1.8% active; AID 540276; active = well fitted inhibition curve with a large enough effect; inconclusive = small, poorly fitted or top-dose-only effect, or effect the other way; inactive = flat fitted curve, though single readings scatter; tested in HEK293 cells; about a fifth of its hits are not listed in these tables; note: % is set by controls: 0 for no effect and ±100 for the full control effect; luciferase read-out
RE007 growth inh – less growth of the S. pombe RE007 Vpr strain. S. pombe RE007 Vpr strain, BacTiter-Glo ATP luminescence, 24 h; control for the full effect not named in the record. Potency, µM (top dose mostly 92.2 µM), for inactives: at the top dose activity change, negative = less growth. 360,000 tested, 0.21% active; active = well fitted falling curve with a large enough effect; inconclusive = small, poorly fitted or top-dose-only effect; inactive = no such curve, though single readings can be large or run the other way;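 note: % is set by controls: 0 for no effect and ±100 for the full control effect; nearly all actives have a fitted effect of over 50% in size; the assay follows cell death caused by Vpr and the record does not say whether a fall means rescue or toxicity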
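Fission yeast RE007 carrying one integrated HIV-1 vpr copy, seeded at OD 0.01 in PMG+AL medium with 23 nL pinned compound. Grown 24 h at 30 degrees; viability read by BacTiter-Glo luminescence after 5 min.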
2A StopGo – lowers the luciferase signal of an FMDV 2A StopGo reporter; Potency, µM (highest dose often 57.9 µM), inactives show at the highest dose signal change, negative = less light; 410,000 tested, 1.2% active; human cells with a luciferase reporter of 2A StopGo recoding; control for the full effect not named in the record; active = well fitted falling curve with a large enough effect; inconclusive = small, poorly fitted or top-dose-only effect; inactive = no such curve, though single readings can be large or run the other way; tested in HEK293T cells; note: % is set by controls: 0 for no effect and ±100 for the full control effect; nearly all actives have a fitted effect of over 45% in size; luciferase light after 4 h
Lassa entry inh – blocks Lassa virus binding to or entry into cells. Lassa virus pseudotype entry inhibition, cell reporter; control for the full effect not named in the record. Potency, µM (series often up to 37.9 µM), inactives show top-dose activity change, negative = inhibition, actives largely listed as inhibitors. 300,000 tested, 1.2% active. AID 540256; active means well fitted inhibition curve with a large enough effect; inconclusive means small, poorly fitted or top-dose-only effect, or effect the other way; inactive means flat fitted curve, though single readings scatter; tested in HEK293 cells; note: % is set by controls: 0 for no effect and ±100 for the full control effect; nearly all actives have a fitted effect of over 50% in size; luciferase read-out
Cruzain Triton – blocks cruzain activity in presence of Triton detergent. P25779. purified cruzain, Z-FR-AMC fluorescence, 0.01% Triton. Potency, µM, without a hit: max response, negative = inhibition, hits mostly inhibitors. 200,000 tested, 0.43% active. AID 1478;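 note: plate controls were neutral wells for no effect and buffer without enzyme for full effect; nearly all actives have a fitted effect of over 40% in size; top concentration of the series not given in the record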
Target sequence (P25779 123-467 limits assumed): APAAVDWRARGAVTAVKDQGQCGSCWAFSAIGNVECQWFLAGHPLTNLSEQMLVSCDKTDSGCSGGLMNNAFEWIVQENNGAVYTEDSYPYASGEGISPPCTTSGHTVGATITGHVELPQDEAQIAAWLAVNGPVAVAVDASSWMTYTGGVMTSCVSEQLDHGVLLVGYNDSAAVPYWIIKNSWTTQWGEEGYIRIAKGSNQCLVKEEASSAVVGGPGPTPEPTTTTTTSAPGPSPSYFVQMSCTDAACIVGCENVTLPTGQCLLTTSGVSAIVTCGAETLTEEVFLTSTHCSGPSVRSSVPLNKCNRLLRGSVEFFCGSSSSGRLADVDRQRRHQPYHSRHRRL
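Steps: dispense cruzain (1.5 nM final) in acetate buffer pH 5.5 with DTT and 0.01% Triton X-100; pin-transfer compounds; incubate 15 min RT; add Z-FR-AMC (2 uM final); read fluorescence every 30 s, using the 60 s intensity change.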
SARS PLP yeast – blocks SARS-CoV papain-like protease in a yeast assay; S. cerevisiae expressing SARS-CoV PLpro, growth rescue; control for the full effect not named in the record; Potency, µM (titrated, usually from 32.9 µM), without a hit: top-dose activity, positive = growth rescue; 330,000 tested, 0.19% active; active means well fitted rising curve with a large enough effect; inconclusive means small, poorly fitted or top-dose-only effect; inactive means no such curve, though single readings can be large or run the other way; note: 0% is about no effect; nearly all actives have a fitted effect of over 55% in size; growth read by luminescence after 48 h
Cruzain noTriton – inhibitors of Trypanosoma cruzi cruzain without detergent; 200,000 tested, 2.3% active; AID 1476; P25779; Potency, µM, without a hit: max response, negative = inhibition, most hits filed as inhibitors; purified cruzain, Z-FR-AMC fluorescence, no detergent;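 note: plate controls were enzyme without inhibitor for no effect and buffer without enzyme for full effect; nearly all actives have a fitted effect of over 40% in size; top concentration of the series not given in the record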
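Purified cruzain at 1.5 nM, pre-incubated 15 min with compound at room temperature in 100 mM sodium acetate pH 5.5, 5 mM DTT, 0.00005% Triton X-100. Reaction started with 2 uM Z-FR-AMC; AMC fluorescence increase over 60 s gives rate.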
NS1 inh – blocks influenza NS1 protein function. S. cerevisiae slowed by influenza A NS1, growth recovery by OD600. Potency, µM (doses to about 46.1 µM), for inactives: at the highest dose activity, positive = more growth. 270,000 tested, 0.4% active. AID 2326; active means well fitted rising curve with a large enough effect; inconclusive means small, poorly fitted or top-dose-only effect; inactive means no such curve, though single readings can be large or run the other way; note: nearly all actives have a fitted effect of over 50% in size
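Recovery from NS1-induced slow growth read by OD600 in budding yeast switched to galactose assay medium (pH 6.0, -URA) at 1:100 dilution. Compound 23 nl per well; the matching strain lacking NS1 serves as control.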
Active calls of the source: *; ? = inconclusive; . = no result given; & = joins results of further samples; [ ] = another dose, or the depositor's remark. Unless noted, calls come from the whole dose curve; as a rule, active = well fitted curve in the direction sought with a large enough effect; inconclusive = small, poorly fitted or top-dose-only effect, or another doubt; inactive = no such curve, though single readings can be large; an effect the other way counts as inactive or inconclusive. Potency is the fitted concentration of half-maximal effect.

SMILES | MARV entry inh | RE007 growth inh | 2A StopGo | Lassa entry inh | Cruzain Triton | SARS PLP yeast | Cruzain noTriton | NS1 inh
COc1ccc(N(C(=O)c2ccco2)S(=O)(=O)c2ccc(F)cc2)cc1 | -8%[46.1 µM] | -2% | 31%[activator] | 4% | -6.2% | 3% | -6% | -4%
COc1cccc(CN2CCNC(=O)C2CC(=O)NCCCC2CCCC2)c1OC (stereo not drawn) | 9% | -8% | 5% | 7% | . | -3% | . | -5%
CC/C(=N\NC(=S)Nc1cc(C)ccc1C)c1ccc(OC(F)F)cc1 | -4% | -10% | -7% | ? | -7.5% | ? | 6% | -18%
O=C(Cc1cccs1)NNC(=O)C12CC3CC(CC(C3)C1)C2 | 12% | 4% | -9% | 0% | . | 2% | . | .
Cc1ccc(/C(COc2ccccc2O)=N\O)cc1 | 5% | ? | . | 14% | 1.1% | -1% | 7% | -12%
COC(=O)COc1ccc(/C=C2\SC(=O)N(CC(=O)Nc3ccccc3F)C2=O)cc1 | 5% | -5% | -8% | ? | . | -9% | . | 13%
O=C(CCN1C(=O)S/C(=C\C=C\c2ccccc2)C1=O)Nc1ccc(O)cc1 | . | 2% | 34%[activator] | . | . | 10% | . | -10%
Cc1ccccc1Nc1c(-c2cccnc2)nc2ccc(Cl)cn12 | ? | . | -2% | -27%[46.1 µM] | -7.9% | . | -2% | .
CN(C(=S)NC1=CCS(=O)(=O)C1)C1CCCCC1 | 5% | -13% | 0% | -6% | 5.5% | 6% | -4% | 6%
O=C(Cn1nc(C(=O)O)c2ccccc2c1=O)Nc1ccc2c(c1)OCO2 | 7%[46.1 µM] | 0% | -5% | 9% | . | 1% | . | 5%
COc1ccccc1Oc1cn[nH]c1-c1ccc(O)cc1O | . | -9% | -26% | . | . | 0% | . | 3%
O=C(/C=C/c1ccc(Br)cc1)c1ccc(NC2=NCCCS2)cc1 | ? | -17% | 16µM* | ? | -17% | -10% | ? | ?
CCOc1ccc(Cl)cc1S(=O)(=O)N1CCCC1 | -7% | -18% | -4% | 1% | 8.1% | -3% | 6% | 7%
Cc1c(Cc2ccccc2)c(=O)oc2c(O)c(O)ccc12 | ? | 18% | 0% | ? | . | 3% | . | -3%
COC(=O)NNC(=O)C1CCC(C)CC1 (stereo not drawn) | -8%[46.1 µM] | 37% | 0%&1% | 4%[46.1 µM] | -1.2%&-1.0% | 2% | 5%&-4% | 11%
COc1cc(OC)cc(C(=O)NNC(=S)Nc2ccccc2OC)c1 | 13% | 13% | 5% | -17% | -3.3% | 7% | -8% | -3%
CCOC(=O)c1c(N)c2cc([N+](=O)[O-])cnc2n1C | 29% | 1% | -7% | -5% | . | -1% | . | -3%
CCOC(=O)Cn1ncc2c3ccccc3n(CC(=O)OCC)c2c1=O | . | 19% | -16% | . | . | 0% | . | 0%
Cc1ccc(Cl)cc1-n1c(=O)cc(N2CC(C)OC(C)C2)[nH]c1=O (stereo not drawn) | ? | 6% | -8% | 17% | 0.6% | 6% | -2% | 7%
COC(=O)C1=NN(c2ccc(OC)cc2)C2C(=O)N(c3ccccc3OC)C(=O)C12 (stereo not drawn) | 11% | 12% | -2% | -8% | . | -6% | . | 6%
Cc1nc(C)c(C(=O)C2=C(O)C(=O)N(CCN3CCOCC3)C2c2cccnc2)s1 (stereo not drawn) | 6% | 8% | -13% | 6% | -3.7% | 4% | -4% | 9%
Cc1cc(C)n(-c2cc(=O)n(C)c(=O)n2C)n1 | 6% | 13% | -12% | 1% | 1.4% | 4% | -9% | -5%
Brc1ccccc1-c1nnc(COc2cccc3cccnc23)o1 | -22% | -10% | 16% | 13% | -3.0% | -7% | -5% | -83%
COc1cc(CN(C)CCc2ccccn2)cc(OC)c1OC | -1% | 6% | -11% | 12% | 4.9% | 8% | -2% | -1%
O=[N+]([O-])c1ccc(N2CCNCC2)c(S(=O)(=O)N2CCOCC2)c1 | -13% | 8% | -15% | 5% | -2.6% | 10% | 4% | 10%
Cc1noc(C)c1C(=O)OCC(=O)NCc1ccccc1 | 10%[46.1 µM] | 4% | -19% | 13% | . | 4% | . | .
Cc1cccc2cc(C3CC(c4ccco4)=NN3C(=O)CCC(=O)O)c(Cl)nc12 (stereo not drawn) | -6% | 10% | ? | 1% | -7.1% | 6% | 10% | 0%
CN(C)CCCN(C(=O)COc1ccccc1)c1nc2cc3c(cc2s1)OCO3 | ? | 4% | 15% | ? | . | 0% | . | 2%
CC(=O)Nc1ccc(NS(=O)(=O)c2c(Cl)cccc2Cl)cc1 | . | 0% | 4% | . | . | -2% | . | -4%
CC[C@@H](C)[C@@H](C(=O)N1CCNCC1)n1cc(CCC(=O)O)nn1 | . | -7% | -15% | . | . | 1% | . | 2%
COc1ccc(NC(=O)COC(=O)C(NC(=O)c2ccc(C)cc2)C(C)C)cn1 (stereo not drawn) | -2% | -7% | 6% | 3% | . | 1% | . | .
COc1ccc(OC)c(-c2oc3ccccc3c(=O)c2O)c1 | -5% | 14% | 13% | 5% | -3.3% | -1% | -7% | -8%
COc1cc(CNn2c(C)n[nH]c2=S)cc(Br)c1OCc1ccc(F)cc1 | -22% | 7% | -23% | ? | -16% | 5% | -9% | 6%
CN(C)CCCNc1c2c(nc3cc(-c4cccc(F)c4)nn13)CCC2 | . | -11% | 7% | . | . | 0% | . | 2%
CCOC(=O)c1cccc(NC(=O)[C@@H](c2ccccc2)N2Cc3ccccc3C2=O)c1 | ? | . | 69%[activator] | -16%[46.1 µM] | -5.2% | . | 3% | .
Cc1ccc(N(CCC#N)C(=O)COC(=O)c2ccccn2)cc1 | ? | 4% | 13% | ? | . | -3% | . | 10%
O=C(N1CCCCC1)N1CCN(c2ccc(Cl)cc2)CC1 | -25% | ? | ? | ? | 7.8% | -18% | 2% | -6%
Cc1cc(C)c(NC(=O)COC(=O)CCn2c(C)csc2=O)c(C)c1 | 11% | 0% | -11% | 0% | . | -12% | . | .
O=C(Nc1ccc(S(=O)(=O)Nc2cnc3ccccc3n2)cc1)c1ccccc1Br | ? | 5% | 34%[activator] | . | . | 0% | . | -2%
COc1ccc2c(c1)Cc1sc(NC(C)=O)nc1-2 | ? | -13% | -15% | -3% | -3.1% | -6% | -8% | -9%
CCCNC(=O)Cn1cnc2sc(C(=O)NCCCN3CCOCC3)c(C)c2c1=O | 15%[46.1 µM] | 3% | 21% | 1%[46.1 µM] | . | 0% | . | 5%
COc1ccc(C(=O)NCC(=O)OCc2ccc(F)cc2Cl)cc1OC | 5% | -5% | 0% | 9% | -6.8% | 4% | -4% | -3%
Cc1cc(OCc2cc(C(=O)N(C)Cc3ccccn3)no2)cc(C)c1Cl | -2% | 1% | 43%[activator] | ? | . | -2% | . | -30%
CCC(C)(C)n1nnnc1C(c1ccc2ncccc2c1)N1CCN2CCCC2C1 (stereo not drawn) | 1% | -14% | . | -6% | 0.1% | -2% | -4% | -76%
CC(=O)O[C@H](CC(=O)O)C[N+](C)(C)C | ? | 1%[18.4 µM] | -6%&-9% | . | 0.9% | . | 1% | .
O=C1/C(=C/c2ccc(N3CCCC3)cc2)NC(=S)N1C1CC1 | ? | 2% | . | ? | -5.3% | 20% | 4% | 2%
O=C(NCc1ccccc1)C1=C[C@@H](c2ccc(C(F)(F)F)cc2)C[C@@H](OCc2ccc(CO)cc2)O1 | . | -19% | ? | . | . | -1% | . | 11%
S=C(NCCc1ccccn1)NC1CCCCC1 | -3% | -16% | 70%[activator] | ? | -1.6% | 1% | -7% | 11%
CC(C)C(C)NC(=O)COc1ccc([N+](=O)[O-])cc1Cl (stereo not drawn) | -31% | 4% | -34% | -17% | -4.5% | -1% | -7% | -1%
COc1ccccc1NC(=O)CSc1nnc(C2CCCCC2)n1-c1ccccc1 | ? | -15% | -20% | ? | . | 2% | . | 7%
CC(C)(CNC(=O)Cc1ccc(NS(=O)(=O)c2cccc(C(F)(F)F)c2)cc1)N1CCOCC1 | -12% | -18% | 21% | ? | . | 1% | . | .
COCCN(C(=O)CCC(=O)Nc1cc(C)on1)C(C(=O)NC1CCCC1)c1ccccc1F (stereo not drawn) | 3%[46.1 µM] | 8% | 3% | -14%[46.1 µM] | . | 0% | . | -4%
COc1cc2c(cc1NC(=O)CSc1ccccn1)oc1ccccc12 | ? | 0% | 28% | 13% | 0.7% | 2% | ? | 4%
CCN1CCN(S(=O)(=O)c2ccc(Cl)c(C(=O)N(C)Cc3ccc(Cl)cc3Cl)c2)CC1 | ? | 5% | ? | -1% | . | -3% | . | -5%
Cc1ccc(C)c(N2CCN(C(=O)c3cc(S(=O)(=O)N4CCCC4)cn3C)CC2)c1 | . | 2% | ? | -2%[46.1 µM] | -1.4% | 3% | 5% | -2%
Cc1cc(NC(=O)CCC(=O)N(Cc2ccco2)C2(C(=O)NC3CCCC3)CCCCC2C)no1 (stereo not drawn) | ? | -17% | -1% | -1%[46.1 µM] | . | 1% | . | -2%
COc1ccc(-c2cn3c(n2)sc2cc(C(=O)NCCCN4CCCCC4)ccc23)cc1 | . | . | 22% | 2%[46.1 µM] | -2.0% | . | ? | .
COc1ccc(C2C(C#N)=C(N)Oc3cc(N)ccc32)cc1 (stereo not drawn) | . | 2% | 9% | . | . | 2% | . | 13%
CCCOc1ccc(C(=O)CCC(=O)OCC(=O)Nc2cc(C)on2)cc1 | 6% | . | . | . | 11% | -8% | -1% | -5%
CCc1cc(=O)oc2c(C)c3c(cc12)CN(CCc1ccccc1)CO3 | 8%[46.1 µM] | . | -6% | 1%[46.1 µM] | -1.8% | . | -8% | .
